High-throughput results as filed in PubChem.
INS promoter inh: TRM-6 insulin promoter activity inhibition; TRM-6 cells (human fetal islet line), insulin promoter-eGFP reporter, imaging; reporter expression induced with tamoxifen; inhibition, % at 2 µM; 130,000 compounds, 0.9% hits;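 active = inhibition above the mean plus 3 SD, with well images judged a real hit on visual review, cut at about 60% in these data, passing the limit was not always enough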
PKD1 inh: PKD1 (human) kinase inhibition | PKD1 kinase fluorescence polarization assay | inhibition, %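 (about 10 µM by stock and volumes)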 | 200,000 compounds, 0.056% hits;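 active = inhibition of 50% or more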;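 note: controls were vehicle for no effect and a reference inhibitor for full effect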
RGS16-Gao: RGS16-Galphao interaction regulator (human); O15492+P09471; 220,000 compounds, 0.38% hits; bead-based flow cytometry RGS16-Galphao binding, fluorescence; actives lie on both sides; binding response (% of control), % at 10 µM;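 active = below 25% or above 175%, edge rows of some plates excepted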;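 note: Galphao activated by GDP with aluminum fluoride before binding; 100% = wells without compound and 0% = beads without RGS; some results beyond the cut were filed as inactive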
Target sequence (O15492 whole entry, looked up): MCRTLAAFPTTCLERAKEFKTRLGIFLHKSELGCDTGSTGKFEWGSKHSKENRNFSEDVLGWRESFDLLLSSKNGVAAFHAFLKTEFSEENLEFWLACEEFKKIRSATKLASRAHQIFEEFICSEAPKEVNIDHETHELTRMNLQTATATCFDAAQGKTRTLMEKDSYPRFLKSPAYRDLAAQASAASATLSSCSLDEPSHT
Target sequence (P09471 whole entry, looked up): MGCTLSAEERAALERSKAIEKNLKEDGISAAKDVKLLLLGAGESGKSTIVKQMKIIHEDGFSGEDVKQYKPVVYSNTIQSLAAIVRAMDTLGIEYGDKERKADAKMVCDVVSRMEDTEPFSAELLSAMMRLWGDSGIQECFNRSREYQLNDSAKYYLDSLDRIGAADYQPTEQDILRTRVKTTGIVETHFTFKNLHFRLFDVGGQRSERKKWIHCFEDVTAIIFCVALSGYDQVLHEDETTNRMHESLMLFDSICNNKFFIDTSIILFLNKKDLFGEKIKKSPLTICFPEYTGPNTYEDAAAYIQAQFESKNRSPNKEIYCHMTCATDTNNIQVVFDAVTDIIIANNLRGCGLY
GALR2 ag: agonists of human galanin receptor 2 (GALR2); activation, %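 (tested at 5 µM)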; AID 803; GALR2-expressing cells, agonist activation read-out; 140,000 compounds, 0.48% hits;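 active = above mean plus 3 SD of all compounds, about 5% in these data, not always enough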;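 note: 0% = vehicle buffer wells and 100% = reference agonist at full effect; tested in CHO reporter cells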
Target sequence (O43603 whole entry, looked up): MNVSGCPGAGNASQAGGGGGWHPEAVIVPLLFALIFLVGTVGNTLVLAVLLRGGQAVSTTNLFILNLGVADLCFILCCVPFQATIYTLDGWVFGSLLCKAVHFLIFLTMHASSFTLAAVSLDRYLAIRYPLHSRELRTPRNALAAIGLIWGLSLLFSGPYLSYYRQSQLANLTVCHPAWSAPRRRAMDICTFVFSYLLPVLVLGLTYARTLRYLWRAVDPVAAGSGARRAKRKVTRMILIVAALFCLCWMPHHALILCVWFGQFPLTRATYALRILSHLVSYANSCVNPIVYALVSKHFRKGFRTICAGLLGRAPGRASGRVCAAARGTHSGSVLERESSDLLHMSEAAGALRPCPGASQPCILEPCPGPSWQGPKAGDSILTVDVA
HSV augment: HSV replication enhancement. HSV replication augmentation in cells, fold increase. maximum fold increase. 220,000 compounds, 0.005% hits;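 active = peak rise of 1.5-fold or more in the series; tested in PC3 cells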;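 note: first round at 10 µM; read as green reporter fluorescence; hits show the peak of a series up to 25 µM; 1 = signal of infected wells without compound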
INS promoter inh cell count: second read-out of INS promoter inh, no call of its own (marks repeat the call); normalized cell count, %; measured here: cell count, toxicity; reference of the scale not given here;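 cells exposed to compound for 48 h; stained nuclei by imaging scaled within each plate; lower means fewer cells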
HSV augment primary fold: second read-out of HSV augment, no call of its own (marks repeat the call); fold increase; compound at 10 µM; measured here: primary screen fold increase 10 uM; tested in PC3 cells;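 GFP signal in the first replicate; 1 = infected wells without compound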
* = called active by the depositor; [ ] = remark or other dose.

A first look (9 entries):
Screening Cc1ccc(C(=O)N[C@H](C(=O)OCC(=O)NC2CCS(=O)(=O)C2)C(C)C)cc1 (stereo partly specified) returned INS promoter inh 19, PKD1 inh -3, RGS16-Gao 99, GALR2 ag -2.1, HSV augment inactive, INS promoter inh cell count 97 and HSV augment primary fold 0.93.
COc1cccc(C2Cc3ccccc3C(=O)O2)c1 (stereo unspecified) was read as PKD1 inh -3, RGS16-Gao 102, GALR2 ag -0.2, HSV augment inactive and HSV augment primary fold 0.95.
Screening CC1(C)CC(=O)c2cnc(NC(=O)CSC(=S)N3CCCCC3)nc2C1 returned RGS16-Gao 102, HSV augment inactive and HSV augment primary fold 1.1.
Screening COC(=O)c1c(NC(=O)c2cccnc2)sc(C(=O)N(C)C)c1C returned INS promoter inh 14, PKD1 inh 5, RGS16-Gao 100, GALR2 ag -0.4, HSV augment inactive, INS promoter inh cell count 86 and HSV augment primary fold 0.95.
For Nc1c(C(=O)NC2CCCCC2)nsc1C(=O)OCC(=O)NC1CCCCC1 the results were PKD1 inh -9, RGS16-Gao 85, GALR2 ag -1.8, HSV augment inactive and HSV augment primary fold 0.92.
`CCc1ccc(N/C(SC)=C(/C#N)C(N)=O)cc1` gave INS promoter inh -6, PKD1 inh -3, RGS16-Gao 121, GALR2 ag -2.9, HSV augment inactive, INS promoter inh cell count 118 and HSV augment primary fold 1.2.
`O=S(=O)(NCc1cccc(C(F)(F)F)c1)NCc1ccccc1F` gave INS promoter inh 38, PKD1 inh -3, RGS16-Gao 106 and INS promoter inh cell count 110.
Screening COc1ccc(-c2noc(COc3ccc4c(c3)OCO4)n2)cc1OC returned INS promoter inh 38, PKD1 inh -2, RGS16-Gao 97, GALR2 ag -2.1, HSV augment inactive, INS promoter inh cell count 120 and HSV augment primary fold 0.84.
CC(Oc1ccc(Cl)cc1Cl)C(=O)NNC(=O)C(=O)N1CCCCC1 (stereo unspecified) was read as INS promoter inh -19, PKD1 inh -5, RGS16-Gao 96, GALR2 ag -2.4, HSV augment inactive, INS promoter inh cell count 45 and HSV augment primary fold 1.

All compounds of this part (from the top)
Screening Cc1ccc(C(=O)N[C@H](C(=O)OCC(=O)NC2CCS(=O)(=O)C2)C(C)C)cc1 (stereo partly specified) returned INS promoter inh 19, PKD1 inh -3, RGS16-Gao 99, GALR2 ag -2.1, HSV augment inactive, INS promoter inh cell count 97 and HSV augment primary fold 0.93.
COc1cccc(C2Cc3ccccc3C(=O)O2)c1 (stereo unspecified) was read as PKD1 inh -3, RGS16-Gao 102, GALR2 ag -0.2, HSV augment inactive and HSV augment primary fold 0.95.
Screening CC1(C)CC(=O)c2cnc(NC(=O)CSC(=S)N3CCCCC3)nc2C1 returned RGS16-Gao 102, HSV augment inactive and HSV augment primary fold 1.1.
Screening COC(=O)c1c(NC(=O)c2cccnc2)sc(C(=O)N(C)C)c1C returned INS promoter inh 14, PKD1 inh 5, RGS16-Gao 100, GALR2 ag -0.4, HSV augment inactive, INS promoter inh cell count 86 and HSV augment primary fold 0.95.
For Nc1c(C(=O)NC2CCCCC2)nsc1C(=O)OCC(=O)NC1CCCCC1 the results were PKD1 inh -9, RGS16-Gao 85, GALR2 ag -1.8, HSV augment inactive and HSV augment primary fold 0.92.
`CCc1ccc(N/C(SC)=C(/C#N)C(N)=O)cc1` gave INS promoter inh -6, PKD1 inh -3, RGS16-Gao 121, GALR2 ag -2.9, HSV augment inactive, INS promoter inh cell count 118 and HSV augment primary fold 1.2.
`O=S(=O)(NCc1cccc(C(F)(F)F)c1)NCc1ccccc1F` gave INS promoter inh 38, PKD1 inh -3, RGS16-Gao 106 and INS promoter inh cell count 110.
Screening COc1ccc(-c2noc(COc3ccc4c(c3)OCO4)n2)cc1OC returned INS promoter inh 38, PKD1 inh -2, RGS16-Gao 97, GALR2 ag -2.1, HSV augment inactive, INS promoter inh cell count 120 and HSV augment primary fold 0.84.
CC(Oc1ccc(Cl)cc1Cl)C(=O)NNC(=O)C(=O)N1CCCCC1 (stereo unspecified) was read as INS promoter inh -19, PKD1 inh -5, RGS16-Gao 96, GALR2 ag -2.4, HSV augment inactive, INS promoter inh cell count 45 and HSV augment primary fold 1.
`CCC(C)(C(=O)NC1CCCCC1)N(Cc1ccco1)C(=O)c1ccc2c(c1)OCO2` (stereo unspecified) gave INS promoter inh 29, PKD1 inh -6, RGS16-Gao 102, GALR2 ag 2.5, HSV augment inactive, INS promoter inh cell count 101 and HSV augment primary fold 0.9.
O=C(NCCCN1CCOCC1)C1CCC(=O)N1C1CCCCC1 (stereo unspecified) was read as INS promoter inh 0, PKD1 inh -4, RGS16-Gao 105, GALR2 ag -1.3, HSV augment inactive, INS promoter inh cell count 107 and HSV augment primary fold 0.93.
O=C(O)c1ccc(N/N=C/c2ccc(-c3ccc(Cl)cc3Cl)o2)cc1 was read as RGS16-Gao 99, HSV augment inactive and HSV augment primary fold 0.89.
For Cc1cc(=O)[nH]c(SCC(=O)Nc2ccc(S(=O)(=O)N3CCCCC3)cc2)n1 the results were INS promoter inh 0, PKD1 inh -1, RGS16-Gao 103, GALR2 ag -2.5, HSV augment inactive, INS promoter inh cell count 174 and HSV augment primary fold 0.83.
Screening Cc1cc2cc(C)c3nnc(SCc4ccccn4)n3c2cc1C returned INS promoter inh -18, PKD1 inh 7, RGS16-Gao 96, GALR2 ag 1.0, HSV augment inactive, INS promoter inh cell count 119 and HSV augment primary fold 1.2.
Screening O=C(CN1CCN(c2ncc(C(F)(F)F)cc2Cl)CC1)Nc1ccc2c(c1)OCO2 returned INS promoter inh 5, PKD1 inh 1, RGS16-Gao 100, GALR2 ag 0.8, HSV augment inactive, INS promoter inh cell count 159 and HSV augment primary fold 0.98.
For CCOC(=O)COc1ccc(S(=O)(=O)Nc2ccc3c(c2)OCO3)cc1 the results were INS promoter inh -36, PKD1 inh 0, RGS16-Gao 91, GALR2 ag -0.2, HSV augment inactive, INS promoter inh cell count 55 and HSV augment primary fold 0.79.
`CCCn1c(C)cc(/C=C(\C#N)C(=O)OCC(=O)Nc2ccc(OC)c(Cl)c2)c1C` gave PKD1 inh -1, RGS16-Gao 102, GALR2 ag -0.7, HSV augment inactive and HSV augment primary fold 1.1.
`O=C(O)c1cccc(-n2cccc2/C=C2/NC(=O)N(Cc3ccccc3F)C2=O)c1` gave INS promoter inh 35, PKD1 inh -13, RGS16-Gao 96, HSV augment inactive, INS promoter inh cell count 179 and HSV augment primary fold 0.95.
N/C(=N\OC(=O)COc1ccc(Br)cc1)c1cccc([N+](=O)[O-])c1 was read as RGS16-Gao 87, HSV augment inactive and HSV augment primary fold 0.96.
`Cc1c(NS(=O)(=O)c2ccc3c(c2)c(=O)n(C)c(=O)n3C)c(=O)n(-c2ccccc2)n1C` gave INS promoter inh 22, PKD1 inh 1, RGS16-Gao 102, GALR2 ag -0.2 and INS promoter inh cell count 69.
For CC1CCCN(C(=O)c2ccc3c(c2)C(=O)N(CCC2=CCCCC2)C3=O)C1 (stereo unspecified) the results were INS promoter inh -5, PKD1 inh 1, RGS16-Gao 207, GALR2 ag 0.8 and INS promoter inh cell count 100.
COc1cccc(S(=O)(=O)Nc2ccc(C(=O)N3CCOCC3)cc2)c1 was read as INS promoter inh 8, PKD1 inh 0, RGS16-Gao 102, GALR2 ag -1.2, HSV augment inactive, INS promoter inh cell count 134 and HSV augment primary fold 0.79.
Screening COc1ccc(C2=CSC3=C(C(=O)c4cccc(S(=O)(=O)N(C)C)c4)CCN23)cc1 returned INS promoter inh -21, PKD1 inh -1, RGS16-Gao 94, GALR2 ag -2.4, HSV augment inactive, INS promoter inh cell count 131 and HSV augment primary fold 0.83.
For Cc1cc(NC(=O)CSc2nnc(C(C)N(C)C)n2Cc2ccccc2)no1 (stereo unspecified) the results were INS promoter inh -36, PKD1 inh -1, RGS16-Gao 102, GALR2 ag -1.2, HSV augment inactive, INS promoter inh cell count 87 and HSV augment primary fold 1.
COc1cccc(N/C(SCc2ccccc2F)=C(/C#N)C(=O)NCc2cccs2)c1 was read as INS promoter inh -6, PKD1 inh -7, RGS16-Gao 111, GALR2 ag -1.8, HSV augment inactive, INS promoter inh cell count 79 and HSV augment primary fold 1.1.
`O=C(Nc1ccncc1)Nc1ccccn1` gave INS promoter inh -35, PKD1 inh 0, RGS16-Gao 100, GALR2 ag -1.1, HSV augment inactive, INS promoter inh cell count 104 and HSV augment primary fold 0.82.
For Cc1ccc(OCC(=O)N/N=C\c2ccncc2)c(C)c1 the results were INS promoter inh -26, PKD1 inh 0, RGS16-Gao 177*[activator], GALR2 ag 0.5, HSV augment inactive, INS promoter inh cell count 88 and HSV augment primary fold 1.
For Cc1nnc(NC(=O)c2cc3n(n2)C(C(F)(F)F)CC(C2CC2)N3)s1 (stereo unspecified) the results were PKD1 inh -4, RGS16-Gao 95, GALR2 ag -0.1, HSV augment inactive and HSV augment primary fold 1.
`COc1ccc(/C=N/NC(=O)CCn2cnc(-c3ccccc3)c2-c2ccccc2)cc1` gave INS promoter inh -87, PKD1 inh 1, RGS16-Gao 101, GALR2 ag 2.8, HSV augment inactive, INS promoter inh cell count 17 and HSV augment primary fold 0.72.
`Cc1ccc(CN(C)C(=O)c2ccc3c(c2)NC(=O)CS3)o1` gave RGS16-Gao 99, HSV augment inactive and HSV augment primary fold 1.
For O=C1c2cccc3cccc(c23)C(=O)N1CCc1ccccc1 the results were INS promoter inh 50, PKD1 inh 10, RGS16-Gao 104, HSV augment inactive, INS promoter inh cell count 82 and HSV augment primary fold 1.1.
For COc1ccc(CNC(=O)CN2CCN(C(c3ccccc3)c3ccccc3)CC2)cc1 the results were INS promoter inh 42, PKD1 inh -8, RGS16-Gao 106, HSV augment inactive, INS promoter inh cell count 120 and HSV augment primary fold 0.87.
O=C(COc1ccccc1F)N/N=C1\CCCc2ccccc21 was read as PKD1 inh -10, RGS16-Gao 111, GALR2 ag -1.0, HSV augment inactive and HSV augment primary fold 0.88.
Screening CCCC(C)C(=O)Nc1nc(C)c(-c2csc(Nc3cc(OC)ccc3OC)n2)s1 (stereo unspecified) returned INS promoter inh 7, PKD1 inh 1, RGS16-Gao 102, GALR2 ag 0.9, HSV augment inactive, INS promoter inh cell count 102 and HSV augment primary fold 0.68.
C=CCOc1ccc(NC(=O)C2CC(=O)N(C(C)C)C2)cc1 (stereo unspecified) was read as INS promoter inh -36, PKD1 inh 1, RGS16-Gao 94, GALR2 ag -0.2, HSV augment inactive, INS promoter inh cell count 82 and HSV augment primary fold 1.1.
CC1=C(C(=O)Nc2ccc(F)cc2)C(c2ccncc2)C2=C(CCCC2=O)N1 (stereo unspecified) was read as INS promoter inh 18, PKD1 inh -2, RGS16-Gao 108, GALR2 ag -1.9, HSV augment inactive, INS promoter inh cell count 56 and HSV augment primary fold 0.99.
`Cc1cc(C)n2nc(C(=O)N3CCCC(CNS(=O)(=O)c4cccs4)C3)cc2n1` (stereo unspecified) gave PKD1 inh -9, RGS16-Gao 100, HSV augment inactive and HSV augment primary fold 0.97.
O=C(CSc1nnc(-c2ccco2)o1)N1c2ccccc2CCc2ccccc21 was read as INS promoter inh -77, PKD1 inh 1, RGS16-Gao 101, GALR2 ag -1.6, HSV augment inactive, INS promoter inh cell count 76 and HSV augment primary fold 0.85.
Screening C=CCn1c(SCC(=O)NCC2CCCO2)nnc1-c1ccccc1 (stereo unspecified) returned INS promoter inh 11, PKD1 inh 11, RGS16-Gao 106, HSV augment inactive, INS promoter inh cell count 100 and HSV augment primary fold 0.98.
For Nc1ncn(-c2ncc(C(F)(F)F)cc2Cl)n1 the results were PKD1 inh -5, RGS16-Gao 100, HSV augment inactive and HSV augment primary fold 0.98.
COC(=O)c1ccc2c(c1)NC(=O)C(N1CCOCC1)S2 (stereo unspecified) was read as PKD1 inh 2, RGS16-Gao 101, GALR2 ag -1.0, HSV augment inactive and HSV augment primary fold 0.73.
O=C(COC(=O)/C=C/c1ccccc1)NCCC1=CCCCC1 was read as PKD1 inh 6, RGS16-Gao 109, GALR2 ag -2.0, HSV augment inactive and HSV augment primary fold 0.83.
`O=C(O)C1CCCN1c1ncccc1[N+](=O)[O-]` (stereo unspecified) gave PKD1 inh -4, RGS16-Gao 103, HSV augment inactive and HSV augment primary fold 1.2.
`Clc1ncccc1-c1nc2ccccc2n1Cc1ccccc1` gave PKD1 inh 3, RGS16-Gao 102, GALR2 ag -1.7, HSV augment inactive and HSV augment primary fold 1.
Screening COc1ccccc1N1CCN(C(=O)CN2C(=O)c3ccccc3C2=O)CC1 returned PKD1 inh 13, RGS16-Gao 102, HSV augment inactive and HSV augment primary fold 1.1.
Screening O=C(CCc1nnc(-c2ccsc2)o1)NCc1ccccc1OC(F)(F)F returned PKD1 inh -9, RGS16-Gao 100, HSV augment inactive and HSV augment primary fold 1.
